Bioassay records from PubChem.
SARS PLpro yeast: qHTS of Yeast-based Assay for SARS-CoV PLP. Potency, µM (series often up to 32.9 µM), for the others: at the highest dose activity, positive = growth rescue. AID 485353, 2010. S. cerevisiae expressing SARS-CoV PLpro, growth rescue; control for the full effect not named in the record. 330,000 compounds, 0.19% hits; active means well fitted rising curve with a large enough effect; inconclusive means small, poorly fitted or top-dose-only effect; inactive means no such curve, though single readings can be large or run the other way; note: 0% is about no effect; nearly all actives have a fitted effect of over 55% in size; growth read by luminescence after 48 h
LASV entry inh: qHTS for Inhibitors of binding or entry into cells for Lassa Virus. 300,000 compounds, 1.2% hits. Lassa virus pseudotype entry inhibition, cell reporter; control for the full effect not named in the record. Potency, µM (titrated, usually from 37.9 µM), for the others: at the top dose activity change, negative = inhibition, most hits filed as inhibitors; active means well fitted inhibition curve with a large enough effect; inconclusive means small, poorly fitted or top-dose-only effect, or effect the other way; inactive means flat fitted curve, though single readings scatter; tested in HEK293 cells; note: % is set by controls: 0 for no effect and ±100 for the full control effect; nearly all actives have a fitted effect of over 50% in size; luciferase read-out
Cruzain inh Det: qHTS Assay for Promiscuous and Specific Inhibitors of Cruzain (with detergent); purified cruzain, Z-FR-AMC fluorescence, 0.01% Triton; Potency, µM, without a hit: max response, negative = inhibition, most hits filed as inhibitors; 200,000 compounds, 0.43% hits;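 note: plate controls were neutral wells for no effect and buffer without enzyme for full effect; nearly all actives have a fitted effect of over 40% in size; top concentration of the series not given in the record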
Target sequence (P25779 123-467 limits assumed): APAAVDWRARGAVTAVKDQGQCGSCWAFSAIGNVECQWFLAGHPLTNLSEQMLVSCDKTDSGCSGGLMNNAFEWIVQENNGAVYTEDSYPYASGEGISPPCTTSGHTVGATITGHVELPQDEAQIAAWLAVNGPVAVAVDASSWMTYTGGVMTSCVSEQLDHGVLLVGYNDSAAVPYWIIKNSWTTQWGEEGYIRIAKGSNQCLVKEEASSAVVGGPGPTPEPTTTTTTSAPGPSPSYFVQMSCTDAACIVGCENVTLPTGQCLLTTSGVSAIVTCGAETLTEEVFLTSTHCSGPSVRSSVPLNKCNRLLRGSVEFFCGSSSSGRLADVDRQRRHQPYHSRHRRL
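Sodium acetate buffer (100 mM, pH 5.5) containing 5 mM DTT and 0.01% Triton X-100 hosted 1.5 nM cruzain and test compound for 15 min at room temperature. Cleavage of 2 uM Z-FR-AMC was then tracked by fluorescence.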
Marburg entry inh: qHTS for inhibitors of binding or entry into cells for Marburg Virus | Marburg virus pseudotyped entry inhibition, cell reporter; control for the full effect not named in the record; about a third of the inactives were read at about 46 µM | Potency, µM (doses to about 37.8 µM), without a hit: top-dose activity change, negative = inhibition, most hits filed as inhibitors | 300,000 compounds, 1.8% hits; active = well fitted inhibition curve with a large enough effect; inconclusive = small, poorly fitted or top-dose-only effect, or effect the other way; inactive = flat fitted curve, though single readings scatter; tested in HEK293 cells; about a fifth of its hits are not listed in these tables; note: % is set by controls: 0 for no effect and ±100 for the full control effect; luciferase read-out
Cruzain inh noDet: qHTS Assay for Promiscuous and Specific Inhibitors of Cruzain (without detergent) | purified cruzain, Z-FR-AMC fluorescence, no detergent | 200,000 compounds, 2.3% hits | Potency, µM, inactives show max response, negative = inhibition, actives largely listed as inhibitors | Cruzipain (Trypanosoma cruzi), P25779;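 note: plate controls were enzyme without inhibitor for no effect and buffer without enzyme for full effect; nearly all actives have a fitted effect of over 40% in size; top concentration of the series not given in the record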
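Detergent-free condition (0.00005% Triton X-100) in acetate buffer pH 5.5 with DTT. 1.5 nM enzyme and compound were pre-mixed 15 min, then 2 uM Z-FR-AMC substrate added; reaction progress from fluorescence change between first and third reads (60 s).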
NS1 inh: qHTS Assay for Inhibitors of Influenza NS1 Protein Function. S. cerevisiae slowed by influenza A NS1, growth recovery by OD600. Potency, µM (highest dose often 46.1 µM), for inactives: at the highest dose activity, positive = more growth. 270,000 compounds, 0.4% hits. AID 2326, 2010; active means well fitted rising curve with a large enough effect; inconclusive means small, poorly fitted or top-dose-only effect; inactive means no such curve, though single readings can be large or run the other way; note: nearly all actives have a fitted effect of over 50% in size
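A cell-based growth assay was used: compounds that relieve NS1-induced slow growth of budding yeast raise OD600. Assay medium was yeast nitrogen base with ammonium sulphate and -URA supplement, pH 6.0, with 2% galactose.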
RE007 growth inh: qHTS Assay for Inhibitors of the HIV-1 protein Vpr; S. pombe RE007 Vpr strain, BacTiter-Glo ATP luminescence, 24 h; control for the full effect not named in the record; Potency, µM (series often up to 92.2 µM), for inactives: at the top dose activity change, negative = less growth; 360,000 compounds, 0.21% hits; AID 651644, 2012; active = well fitted falling curve with a large enough effect; inconclusive = small, poorly fitted or top-dose-only effect; inactive = no such curve, though single readings can be large or run the other way;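 note: % is set by controls: 0 for no effect and ±100 for the full control effect; nearly all actives have a fitted effect of over 50% in size; the assay follows cell death caused by Vpr and the record does not say whether a fall means rescue or toxicity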
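Fission yeast RE007 carrying one integrated HIV-1 vpr copy, seeded at OD 0.01 in PMG+AL medium with 23 nL pinned compound. Grown 24 h at 30 degrees; viability read by BacTiter-Glo luminescence after 5 min.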
StopGo reporter: High Throughput Screening for Foot and Mouth Disease Virus Antivirals; AID 1159524, 2015; Potency, µM (series often up to 57.9 µM), for the others: at the highest dose signal change, negative = less light; 410,000 compounds, 1.2% hits; human cells with a luciferase reporter of 2A StopGo recoding; control for the full effect not named in the record; active = well fitted falling curve with a large enough effect; inconclusive = small, poorly fitted or top-dose-only effect; inactive = no such curve, though single readings can be large or run the other way; tested in HEK293T cells; note: % is set by controls: 0 for no effect and ±100 for the full control effect; nearly all actives have a fitted effect of over 45% in size; luciferase light after 4 h
Active calls of the source: *; ? = inconclusive; . = not tested or not shown; & = joins results of further samples; [ ] = dose if it differs, or a comment. Unless noted, calls come from the whole dose curve; as a rule, active = well fitted curve in the direction sought with a large enough effect; inconclusive = small, poorly fitted or top-dose-only effect, or another doubt; inactive = no such curve, though single readings can be large; an effect the other way counts as inactive or inconclusive. Potency is the fitted concentration of half-maximal effect. Hits appear at their usual frequency; 4.7% or so of the library scored in one or more.

SMILES	SARS PLpro yeast	LASV entry inh	Cruzain inh Det	Marburg entry inh	Cruzain inh noDet	NS1 inh	RE007 growth inh	StopGo reporter
Cc1ccc(NS(=O)(=O)c2ccc(NC(=O)C3CCCO3)cc2)cc1 (stereo unspecified)	5%	-16%	-3.6%	-40%	-11%	-10%	0%	-10%
Cc1c(Cl)c([N+](=O)[O-])nn1CC(=O)NCc1cccs1	-3%	-2%	-0.2%	-11%	10%	1%	3%	-10%
Cc1cccc([C@@H]2C[C@H]3CN(Cc4cccc(Cl)c4)C(=O)[C@]34CCCN24)n1	1%	-8%[46.1 µM]	.	?	.	4%	-9%	-13%
O=C(Nc1ccccc1)Nc1ccc(-n2ccc(C(F)(F)F)n2)cc1	-1%	.	.	.	.	0%	-2%	72%[activator]
CN(Cc1ccccc1)Cc1nc2scc(-c3ccccc3)c2c(=O)[nH]1	-2%	-11%[46.1 µM]	.	?	.	.	-4%	-11%
O=S(=O)(c1ccc(Cl)cc1)c1cnc2ccccc2n1	0%	?	.	-61%[46.1 µM]	.	.	-4%	25µM*
CC(=O)c1ccc(OCCCC(=O)Nc2cc(S(=O)(=O)N(C)C)ccc2C)cc1	-2%	-7%	1.5%	-22%	6%	-1%	1%	5%
C=CCN=C1S/C(=C/c2cccc([N+](=O)[O-])c2)C(=O)N1CC=C	-1%	.	.	.	.	-54%	-13%	?
CCOC(=O)CNC(=S)N(Cc1ccccc1F)C1CCCCC1	3%	-26%	.	?	.	.	2%	3%
COc1ccc(NC(=O)N2CCCc3ccccc32)cc1	-7%	?	-1.6%	4%	-1%	-11%	-10%	0%
O=C(CSc1nccc(=O)[nH]1)NCc1ccc2c(c1)OCO2	0%	.	.	.	.	-1%	-6%	-8%
C=C(C)CN(CC)C(=O)CC1C(=O)NCCN1Cc1c(F)cccc1Cl (stereo unspecified)	1%	.	.	.	.	0%	-24%	-13%
O=C(CSc1nnc(-c2ccc3c(c2)OCO3)n1-c1ccccc1)c1ccccc1	25%	11%	-1.3%	29%	12%	-4%	-3%	3%
CN(C(=O)C1CCCC1)C1CCS(=O)(=O)C1 (stereo unspecified)	5%	10%	.	29%	.	.	0%	-24%
COc1ccccc1OCC(O)CN1CCN(C(=O)c2ccccc2)CC1 (stereo unspecified)	5%	4%	.	?	.	-2%	1%	-16%
COCCNC(=O)CCc1ccc(S(=O)(=O)Nc2ccc(C)cc2)cc1	-6%	-1%	-0.5%	7%	0%	16µM*	-6%	42%[activator]
COc1ccc(-c2cc(-c3ccc(F)cc3)nc(N3CCN(C)CC3)n2)cc1	-4%	?	11%	0%	18%	9%	-4%	-30%
CC(Sc1nc(-c2ccccc2)cc(C(F)(F)F)n1)C(=O)N1CCCCC1 (stereo unspecified)	-3%	12%	-4.9%	?	2%	-41%	3%	?
Cc1ccc([N+](=O)[O-])cc1N=C(c1cccc(Br)c1)N1CCOCC1	-15%	0%	-4.7%	?	-3%	-5%	-12%	?
Cc1onc(-c2ccccc2)c1C(=O)NC(C)c1ccc2c(c1)OCO2 (stereo unspecified)	0%	1%	.	4%	.	8%	-11%	-17%
COc1cccc(OCc2cc(C(=O)NCCc3cccc(C)n3)no2)c1	-2%	7%	.	-5%[46.1 µM]	.	-15%	-6%	-4%
O=C(CNC(=O)N1CC(=O)Nc2ccccc21)NCc1cccc(Cl)c1	-2%	.	.	.	.	10%	0%	-5%
Cc1cccc(Nc2nc(N)nc(CN3CCC(C)CC3)n2)c1C	11%	9%	-1.9%	6%	-1%	-2%	5%	.
Cc1ccccc1NC(=O)Cc1nc(COC(=O)c2ccc(Cl)nc2)cs1	-6%	14%	.	-15%[46.1 µM]	.	.	4%	-28%
O=C1CC(N(CCc2ccccc2)C(=S)Nc2ccccc2)C(=O)N1c1ccccc1 (stereo unspecified)	1%	?	-1.3%	?	-2%	29%	1%	-19%
Next section:
SMILES	SARS PLpro yeast	LASV entry inh	Cruzain inh Det	Marburg entry inh	Cruzain inh noDet	NS1 inh	RE007 growth inh	StopGo reporter
COc1ccc(CN2CCC(=O)N([C@H](CO)c3ccccc3)CC2)cc1OC	-6%	.	.	.	.	8%	7%	-11%
O=C(CCc1ccccc1)Nc1ccccc1C(F)(F)F	-1%	?	.	15%[46.1 µM]	.	-4%	1%	23%
COc1cccc(C(=O)N/N=c2/oc3ccccc3cc2C(N)=O)c1	0%	11%[46.1 µM]	.	?	.	-5%	10%	-26%
O=C(NC(=S)NCc1ccc(F)cc1)c1ccccc1	20%	?	-9.0%	-2%	-10%	-20%	-26%	19%
CCc1cc2c(=O)n(-c3ccc(C)cc3)cnc2s1	12%	-7%	-7.0%	?	4%	2%	-9%	-3%
C/C(=N\NC(=O)c1nn(C)cc1Br)c1cccc(NC(=O)c2ccncc2)c1	-5%	-4%	-3.4%	2%	-6%	2%	.	-9%
Cc1ccccc1NC(=O)Cc1nc(COC(=O)CCc2ccccc2)cs1	-2%	5%	.	-21%	.	.	13%	-6%
Cc1ccc(NC(=O)CSc2nc3ncc(Br)cc3[nH]2)cc1C	7%	.	.	.	.	-1%	17%	?
CC(Oc1ccc(F)cc1)C(=O)Nc1ccc2ccccc2c1 (stereo unspecified)	7%	?	-9.3%	12µM*	5%	7%	8%	9%
CC(=O)C1=C(C)NC(SCC(N)=O)=C(C#N)C1CC(C)C (stereo unspecified)	-3%	1%[46.1 µM]	.	3%[46.1 µM]	.	.	7%	-6%
O=C(COC(=O)c1ccc(Cl)c(S(=O)(=O)NCc2ccccc2)c1)NC1CC1	0%	13%	.	6%	.	.	-9%	13%
COc1ccc(C(=O)NCCCNC(=O)c2cccnc2)cc1Br	-3%	-14%[46.1 µM]	.	0%[46.1 µM]	.	4%	-6%	-10%
CCCCNC(=O)C1CC(=O)N(C2CCCC2)C1 (stereo unspecified)	5%	-2%	-8.5%	-6%	4%	-13%	2%	9%
Cc1cc(=O)c2ccccc2n1Cc1ccccc1	1%	-2%[46.1 µM]	.	?	.	-6%	-14%	?
O=C(COc1ccc(Cl)cc1Cl)NCCCNC(=O)c1cnccn1	-1%	9%[46.1 µM]	.	?	.	-4%	-2%	-15%
CCOc1ccc(C(C)C)cc1S(=O)(=O)Nc1cccc(-c2ccc(N3CCOCC3)nn2)c1	.	2%[46.1 µM]	0.5%	.	10%	.	.	3%
COc1cc(C2NC(=O)NC(O)(C(F)(F)F)C2C(=O)c2ccc(Cl)cc2)ccc1O (stereo unspecified)	1%	?	-0.2%	-2%	-4%	1%	11%	-13%
O=C(COc1ccc(Br)cc1Cl)NCCCN1CCOCC1	-5%	7%	.	-1%	.	-19%	-22%	-6%
O=C(CN(Cc1ccccc1Cl)C(=O)Cn1nnc(-c2cccs2)n1)NCC1CCCO1 (stereo unspecified)	?	-1%	1.1%	-1%&7%	5%	-16%	-8%	.
COC(=O)C1(NC(=O)NC23CC4CC(CC(C4)C2)C3)CCCCC1	0%	-2%	.	-1%	.	6%	-20%	-14%
Cc1cc(=O)oc2ccc(OCC(=O)N3CCC(C)CC3)cc12	-2%	16%	-0.6%	0%	1%	-8%	2%	1%
COc1cc2oc(=O)cc(-c3ccc(-c4ccc(O)cc4)cc3)c2c(OC)c1OC	?	.	0.6%	.	-29%	.	-16%	?
COc1ccc(C(=O)OCC(N)=O)cc1[N+](=O)[O-]	14%	?	-2.6%	-11%	-9%	10%	5%	-2%
COC(=O)c1c(CSc2ccc(C)c(C)c2)noc1C(=O)NCc1ccc(OC)cc1	-6%	.	-4.3%	.	-1%	-9%	-1%	0%
O=C(NCc1ccco1)c1cc(-c2ccco2)on1	0%	20%	-5.3%	-3%	-8%	-6%	-4%	48%[activator]

Only StopGo reporter, for some of the entries so far:
molecule | StopGo reporter
C/C(=N\NC(=O)c1nn(C)cc1Br)c1cccc(NC(=O)c2ccncc2)c1 | -9%
Cc1ccccc1NC(=O)Cc1nc(COC(=O)CCc2ccccc2)cs1 | -6%
Cc1ccc(NC(=O)CSc2nc3ncc(Br)cc3[nH]2)cc1C | ?

(further entries)
SMILES	SARS PLpro yeast	LASV entry inh	Cruzain inh Det	Marburg entry inh	Cruzain inh noDet	NS1 inh	RE007 growth inh	StopGo reporter
c1ccc(C(c2nnnn2Cc2ccco2)N2CCN(c3nc4ccccc4s3)CC2)cc1 (stereo unspecified)	13%	-29%	-0.1%	?	?	13µM*	19%	?
COc1ccccc1N(CC(=O)N/N=C/c1ccccc1C(=O)O)S(C)(=O)=O	0%	14%	.	3%[46.1 µM]	.	-3%	31%	-5%
Cc1ccccc1OCCCCCNCCO	0%	5%	1.2%	-6%	-3%	3%	-22%	-16%
C[C@H]1NS(=O)(=O)c2ccc(Br)cc2O[C@H]1c1ccccc1	-6%	.	.	5%	.	.	4%	-23%
CCOc1ccc(N=C2SCCCN2C(=O)c2c(CC)noc2C)cc1	-2%	-6%	.	-1%	.	-7%	-27%	-24%
Cc1nnc(SCc2cn3ccsc3n2)n(N)c1=O	-3%	9%	3.1%	-4%	-4%	-8%	-6%	-27%
COc1ccc(-c2nc3n(c(=O)c2C#N)CCS3)cc1OC	0%	.	.	.	.	6%	-8%	-4%
CC(C)C(c1nnnn1C1CCCC1)N(C)C1CCCCC1 (stereo unspecified)	0%	16%	2.3%	-3%	-8%	-10%	-8%	-18%
Nc1nc(CN2CCC(Cc3ccccc3)CC2)nc(Nc2ccccc2)n1	-7%	-2%	-2.0%	?	-1%	11%	-11%	?
CSc1ccccc1C(=O)NCc1ccccc1	0%	-8%	.	7%[46.1 µM]	.	3%	1%	3%
Cc1cccc(NC(=O)CC2CCC2)c1	-5%	1%	1.9%	-19%	2%	-2%	6%	83%[activator]
